# Menin-MLL FL inh: displaces fluorescein MLL peptide from human menin; Fluorescence polarization, fluorescein-MLL peptide displacement from menin; FP activity change, % at 61.4 µM; 290,000 tested, under 10 active; AID 1766; inconclusive = falling polarisation curve, or a change in total fluorescence; inactive = total fluorescence flat and polarisation flat or rising; no compound was filed as active; the % refers to the polarisation; negative = inhibition;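 note: % of control where 0% means no effect; inhibitors lower the polarisation; unlabelled MLL peptide was the positive control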
# TRPV1 PAM: potentiators of human vanilloid receptor 1 (TRPV1); potentiation, % at 8.33 µM; Q8NER1; AID 540277; TRPV1-expressing cells, Fluo-8 calcium influx, capsaicin EC20 potentiation; host cell line not named in the record; control for the full effect not named in the record; 0.02% of 320,000 active; active means potentiation above 80%; inconclusive means 30% to 80%; inactive means below 30%; note: 0% is about no effect
#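 Fluo-8 calcium influx in TRPV1-expressing cells, kinetic read (ex 480/em 520 nm). Compound added and read 3 min for agonist activity, followed by capsaicin at EC20 final and 2 min further read for enhancement.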
# Sfp PPTase inh: Sfp phosphopantetheinyl transferase inhibition; Biochemical Sfp PPTase activity, qHTS; Potency, µM, for inactives: max response, negative = inhibition, hits mostly inhibitors; 3.5% of 310,000 active; AID 1490; active = well fitted inhibition curve with a large enough effect; inconclusive = small, poorly fitted or top-dose-only effect, or another doubt; inactive = no such curve, though single readings can be large or run the other way;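 note: the enzyme is Sfp with the accession as filed and its product quenches rhodamine fluorescence; potency is the fitted concentration of half-maximal effect; 0% = enzyme reaction without inhibitor and -100% = no enzyme wells; top concentration of the series not given in the record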
#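 With Hepes-Na pH 7.6 buffer containing 10 mM MgCl2, Sfp (15 nM) modified BHQ-2-YbbR (12.5 uM) using rhodamine-CoA (5 uM). Two reads 30 minutes apart at 525/598 nm yielded each well's rate.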
# PINK1 modulator: changes PINK1 expression | PINK1 immunofluorescence, high-content cytometry, 24 h | Potency, µM (titrated, usually from 76.6 µM), without a hit: at the top dose activation (PINK1 increase), usual class: activators | 0.2% of 410,000 active; active = well fitted activation curve with a large enough effect; inconclusive = small, poorly fitted or top-dose-only effect; inactive = flat fitted curve, though single readings scatter; cell line not stated here;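 note: potency is the fitted concentration of half-maximal effect; % of control where 0% means no effect; nearly all actives have a fitted effect of over 65% in size; a mitochondrial uncoupler was the plate control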
#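 Fluorescence from anti-PINK1 antibody, together with nuclear and cell stains, was scanned on a laser-scanning cytometer. Before staining, stable-line cells were incubated 24 hours with compounds at 5 concentrations; primary antibody 12 h at 10 degrees C.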
# TRPML1 ag: activates the human TRPML1 channel. 0.12% of 410,000 active. AID 624414. activation, % (test concentration not listed). TRPML1-expressing cells, Ca2+ dye fluorescence, FDSS; host cell line not named in the record; reference of the full effect not given here. Q9GZU1; in the data active = activation above about 50%; inconclusive = about 30% to 50%; inactive = below about 30%; note: 0% is about no effect; the text of the record puts the active cut at 80%
# Target sequence (Q9GZU1 whole entry, looked up): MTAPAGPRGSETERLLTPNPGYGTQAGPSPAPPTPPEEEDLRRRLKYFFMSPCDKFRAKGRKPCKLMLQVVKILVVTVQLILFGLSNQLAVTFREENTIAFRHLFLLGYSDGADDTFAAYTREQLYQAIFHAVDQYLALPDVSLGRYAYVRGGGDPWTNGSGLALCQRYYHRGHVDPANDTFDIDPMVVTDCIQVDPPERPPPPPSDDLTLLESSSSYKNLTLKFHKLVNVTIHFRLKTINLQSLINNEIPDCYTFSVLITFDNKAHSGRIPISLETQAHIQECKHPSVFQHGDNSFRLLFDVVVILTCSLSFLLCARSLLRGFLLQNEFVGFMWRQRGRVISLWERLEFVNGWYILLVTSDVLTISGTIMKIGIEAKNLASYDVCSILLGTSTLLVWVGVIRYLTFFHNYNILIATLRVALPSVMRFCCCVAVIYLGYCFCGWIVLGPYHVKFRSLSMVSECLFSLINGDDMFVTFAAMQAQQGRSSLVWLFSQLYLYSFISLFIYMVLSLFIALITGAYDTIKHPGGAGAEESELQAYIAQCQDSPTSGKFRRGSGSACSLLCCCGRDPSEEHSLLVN
#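 In this qHTS format, compounds were pin-transferred onto Ca8-dye-loaded TRPML1-DL cells induced with Tet overnight, and intracellular Ca2+ fluorescence was recorded kinetically for 110 s after a 10 s baseline. A subsequent 4uM final 54-4 (EC80) addition followed by a second 110 s read served as the antagonist phase.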
# TRPML1 blocker: human mucolipin-1 channel inhibition. Q9GZU1. TRPML1-inducible cells, Ca2+ dye fluorescence, FDSS; hits give low values; inhibition of EC80 agonist-evoked calcium signal. activity change, negative = inhibition, % (concentration not given with the values). 0.02% of 390,000 active. AID 624415; in the data active means activity change below about -50%; inconclusive means about -30% to -50%; inactive means above about -30%;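 note: stimulus is agonist 54-4 at its EC80 concentration; % is set by controls: 0 for no effect and ±100 for the full control effect; compound concentration not given in the record; the text of the record puts the active cut at -80%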
#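 Tet-induced TRPML1-DL cells loaded with Ca8 no-wash calcium dye were read kinetically on FDSS. Compound addition was followed by EC80 agonist 54-4 (4 uM final); inhibition was read over 110 s.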
# ClpP mod: qHTS Assay for Activators of ClpP. purified B. subtilis ClpP, FRET peptide cleavage, 20 min. 1.9% of 340,000 active. Potency, µM (doses to about 57.5 µM), for the others: at the highest dose activity change, negative = active. ATP-dependent Clp protease proteolytic subunit (Bacillus subtilis (strain 168)), P80244; active = well fitted falling curve with a large enough effect; inconclusive = small, poorly fitted or top-dose-only effect; inactive = no such curve, though single readings can be large or run the other way; note: potency is the fitted concentration of half-maximal effect; the source files actives as falling curves though it sought activators and does not explain the sign; nearly all actives have a fitted effect of over 65% in size; many hits overshoot -100%
# Target sequence (P80244 whole entry, looked up): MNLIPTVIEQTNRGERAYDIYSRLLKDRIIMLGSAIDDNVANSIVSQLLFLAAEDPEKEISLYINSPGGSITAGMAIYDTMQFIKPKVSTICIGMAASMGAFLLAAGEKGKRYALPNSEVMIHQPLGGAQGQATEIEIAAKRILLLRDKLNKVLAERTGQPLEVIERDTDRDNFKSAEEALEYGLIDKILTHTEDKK
#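 Purified B. subtilis ClpP, 10 microg/mL final in Tris/HCl pH8 with KCl, BSA, glycerol and Tween-20, cleaved an Abz/nitrotyrosine-quenched decapeptide. Fluorescence (ex 320, em 430) was read at 0 and 20 min at room temperature. Delta was normalized to 5.8 microM ADEP and DMSO/no-enzyme controls.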
# * hit, by the source's call; ? = inconclusive; · = not tested or not shown; & = joins results of further samples; [ ] = dose if it differs, or a comment.
# Each structure is followed by: Menin-MLL FL inh	TRPV1 PAM	Sfp PPTase inh	PINK1 modulator	TRPML1 ag	TRPML1 blocker	ClpP mod
- Cc1ccc2nc(Cl)c(/C=N/Nc3ccc(C(=O)O)cc3)cc2c1
 : ?	-4	-22%	1.5%	-0.2	5	-16%
- CCn1nccc1C(=O)Nc1ccccc1OC
 : 1.9	1	15%	-1.1%	0.5	-3	-0.1%
- COC(=O)[C@]1(C)N[C@H](CN(C)C(C)=O)[C@@H]2C(=O)N(Cc3ccccc3)C(=O)[C@@H]21
 : ·	·	·	-1.3%	1.0	6	1.0%
- O=C(Nc1cc(Cl)ccc1Cl)c1ccco1
 : -1.9	?	12%	1.8%	-0.6	1	-2.0%
- COc1cc(-c2nc(=S)[nH][nH]2)cc(OC)c1OC
 : -6.9	2	50µM*	2.9%	-0.4	-3	·
- Nc1c(C(=O)NCc2ccc(F)cc2)c2nc3ccccc3nc2n1CCCN1CCOCC1
 : 2.7	-2	?	-2.9%	5.1	48	35µM*
- Cc1onc(-c2ccccc2)c1C(=O)N/N=C/c1cc(Br)c(O)c(Br)c1
 : -7.6	-5	-1%	-1.0%	1.0	35	-28%
- COc1ccc(OC)c(C(=O)c2ccc(C(=O)N3CCCCC3)cc2)c1
 : 1.3	1	24%	-1.8%	-0.3	7	-1.6%
- COc1ccc(CNC(=O)c2ccc3c(c2)N(Cc2ccc(C)cc2)CCS3)cc1
 : ·	·	·	3.2%	0.3	30	4.3%
- Cc1ccc(S(=O)(=O)N(Cc2nc(-c3ccc(Cl)cc3)no2)C2CCCCC2)cc1
 : ·	·	·	3.5%	0.0	18	-0.5%
- OCCNc1ncnc2c1ncn2[C@H]1CN(Cc2cccs2)C[C@@H](CO)O1
 : ·	·	·	-0.3%	-0.2	·	0.3%
- CCc1nnc(NC(=O)C2CC(=O)N(Cc3ccccc3)C2)s1 (configuration not stated)
 : 1.0	4	13%	0.9%	1.3	4	·
- CCCCOc1ccc(-c2nnn(CC(=O)c3c[nH]c4ccccc34)n2)cc1
 : 11	6	20%	-0.3%	1.9	-1	-18%
- CCOC(=O)c1cccc(Nc2cc(C)nc(C)n2)c1
 : ·	·	·	-0.5%	0.0	9	-18%
- CCc1cccc(NC(=O)C2CC2c2ccccc2)c1 (configuration not stated)
 : -9.6	-6	-6%	2.7%	1.1	7	-2.3%
- Cc1nn(C(=O)c2nn(C)cc2Cl)c(C)c1Br
 : 1.8	-1	-5%	0.2%	0.7	-9	0.7%
- Cc1ccc(C)c(NC(=O)C(c2ccccc2)N2Cc3ccccc3C2=O)c1 (configuration not stated)
 : ·	·	·	12%	2.9	-10	-3.5%
- COc1ccc(-c2noc(CCCC(=O)NCC3CCCO3)n2)cc1 (configuration not stated)
 : 2.8	3	9%	0.3%	0.7	-5	·
- CCC(C)(C)NC(=O)CN(C(=O)CNS(=O)(=O)c1ccccc1)c1ccccc1
 : 2.3	-8	7%	0.7%	1.4	23	-0.4%
- CCOC(=O)Cc1csc(NC(=S)NC(=O)c2ccccc2)n1
 : 7.7	-11	16µM*	-1.3%	5.6	25	-1.0%
- CC1(C)CC(=O)C2=C(C1)NC(Nc1nc3ccccc3o1)=NC2c1ccccc1Cl (configuration not stated)
 : ·	·	·	-0.4%	-0.3	·	?
- Cc1ccccc1C(=O)Nc1nnc(CC(=O)N/N=C/c2ccncc2)s1
 : 2.0	11	19%	-0.4%	0.8	6	·
- CCOc1ccc(NC(=O)Nc2c[nH]c(=O)[nH]c2=O)cc1
 : ·	·	·	3.2%	-0.6	-19	-1.4%
- O=C(NC1CCCCCCC1)c1cnccn1
 : 0.7	-26	7%	-0.5%	0.0	-20	-0.9%
- CC(=O)Nc1ccc(NC(=O)C(C)c2cccc(C(=O)c3ccccc3)c2)cc1 (configuration not stated)
 : 8.1	1	-7%	-0.2%	-1.1	24	-0.5%
- COc1ccc(N2Cc3cccc(C(=O)Nc4ccc(Cl)cc4)c3C2=O)cc1
 : ·	·	·	4.9%	-0.8	24	-16%
- Cc1ccc(C)c(NC(=O)C2CCCN2C(=O)NC2CCCCC2)c1 (configuration not stated)
 : -3.6	-12	18%	-1.2%	3.0	-4	1.0%
- CC(NC(=O)c1c(O)c2ccccc2n(C)c1=O)c1ccccc1 (configuration not stated)
 : -4.0	-4	-1%	1.2%	1.4	9	·
- CC(C)[C@H](NC(=O)[C@@H]1Cc2c([nH]c3ccccc23)C2c3ccccc3C(=O)N21)C(=O)N1CCC[C@@H]1C(=O)O (some centres not stated)
 : 1.2	12	-2%	0.2%	·	·	-8.4%
- CCOC(=O)[C@H]1[C@H]2COc3ccc(C)cc3[C@@H]2N2C(=O)[C@@H](C)NC(=O)[C@@]12C
 : ·	-3	·	-0.3%	0.3	0	1.7%
- Cc1oc(-c2ccc(Cl)cc2)nc1CS(=O)CC(=O)NCCCN(C)C1CCCCC1 (configuration not stated)
 : -0.6	12	11%	-1.3%	-1.3	-12	-25%
- CCCn1c2ccccc2c2nnc(SCc3[nH]c(=O)[nH]c3C(=O)CCCCC(=O)OCC)nc21
 : 1.6	10	25µM*	1.1%	4.1	-11	1.7%
- Cc1ccc(NC(=O)C2(C)CCN2C(C)C)cc1C (configuration not stated)
 : ·	·	·	2.0%	-0.9	·	-0.6%
- O=C(NC1CCN(c2ncccn2)CC1)c1ccccc1F
 : -12	-12	6%	0.5%	0.5	-22	?
- CN(C1=NC(=O)C(CC(=O)Nc2ccc(Br)cc2)S1)c1ccc(O)cc1 (configuration not stated)
 : 2.4	?	-9%	6.8%[38.3 µM]	-0.2	-1	10.0%
- COc1ccc(NC(=O)COC(=O)C23CC4CC(CC(Cl)(C4)C2)C3)c(OC)c1
 : -7.3	-18	14%	1.7%	·	·	-2.4%
- CCOC(=O)c1[nH]c2ccc(OC)cc2c1NC(=O)c1ccc2c(c1)OCO2
 : 1.4	-4	7%	4.4%	-0.2	3	-2.0%
- Cc1ccc(/C=N/N2C(=O)c3ccccc3NC2c2ccc(C)cc2)cc1 (configuration not stated)
 : -0.7	-6	19%	0.5%	0.2	19	-3.0%
- CCC(=O)Nc1ccc(NC(=O)c2ccc3c(c2)OCO3)cc1
 : -2.9	4	15%	6.0%	0.7	-5	-16%
- COc1ccc(CN2CC(=O)N3[C@H]4c5ccccc5OC[C@@H]4[C@H](c4ccccc4)[C@]3(C)C2=O)cc1
 : ·	-1	·	2.0%	-0.2	-9	-3.3%
- CC(C)C[C@H](NC(=O)c1nc[nH]c1C(=O)NC1CCNCC1)C(=O)OCc1ccccc1
 : ·	29	·	-0.5%	-0.1	9	-1.3%
- Cc1cccc(CSC2=NN3CCCC(=O)N=C3S2)c1
 : 1.6	-15	-11%	3.3%	-0.6	-8	-2.2%
- COc1ccccc1NC(=O)[C@H](COCc1ccccc1)NC(=O)OC(C)(C)C
 : 2.3	-15	15%	23%	1.5	-13	1.5%
- COc1ccc(OC)c(NC(=O)CSc2nnc(N)s2)c1
 : 4.8	1	9%	-0.5%	-0.6	-11	-1.3%
- CN(C)CCCCOc1ccccc1F
 : -0.3	5	-30%	-0.8%	0.1	-8	·
- CCc1ccc(NC(=O)Cn2c(=O)n(CCCC(=O)NCc3ccccc3OC)c(=O)c3ccccc32)cc1
 : ·	·	·	8.6%	-0.4	-1	-2.5%
- CCOC(=O)C1=C(O)C(=O)N(CCCn2ccnc2)C1c1ccc(OC)cc1 (configuration not stated)
 : -6.1	-3	6%	·	·	·	·
- CCOC(=O)N1CCN(Cc2cn[nH]c2-c2ccc(-c3ccccc3)cc2)CC1
 : 3.6	0	-16%	3.9%	-0.8	-3	·
- CCCCn1c(N)c(N(CC(C)C)C(=O)C(C)SCc2nc3sc(C)c(C)c3c(=O)[nH]2)c(=O)[nH]c1=O (configuration not stated)
 : ·	-7	·	1.2%	0.7	-12	-12%
- Cc1ccc(Cc2nnc(SCC(=O)Nc3c(C)cccc3C)[nH]c2=O)cc1
 : ·	7	·	1.2%	-1.1	3	0.8%
- Nc1nc(-c2ccccc2)nn1S(=O)(=O)c1ccccc1
 : 2.5	-6	11%	-1.0%	2.4	-19	-5.1%
- CC1(c2nnc(Cc3ccccc3)o2)CC(c2ccccc2Br)=NO1 (configuration not stated)
 : ·	-21	·	0.7%	-0.1	2	-2.8%
- Cc1cc(C(=O)c2ccc(Cl)cc2)c(NC(=O)CCl)s1
 : 2.6	-2	-16%	-2.4%	1.6	8	-3.3%
- O=C(/C=C/c1c(F)cccc1Cl)Nc1cccnc1
 : 6.1	-5	-9%	-0.3%	·	·	2.3%
- C=CCN=c1scc(-c2ccc(F)cc2)n1/N=C/c1ccccn1
 : 2.7	-8	?	0.5%	0.0	10	·
- CCc1ccccc1NC(=O)Cn1c(=O)n(Cc2ccccc2)c(=O)c2c(C)c(C(=O)N(C)C)sc21
 : ·	·	·	2.2%	1.2	20	-2.2%
- CN(CC(O)CN1CCOCC1)S(=O)(=O)O (configuration not stated)
 : 0.1&0.4	6&-17	15%&16%	1.5%&0.9%	0.4&0.4	-3&23	0.5%
- COc1ccc(NC(=O)CN(c2ccc([N+](=O)[O-])cc2)S(=O)(=O)c2ccccc2)c(OC)c1
 : 1.2	4	16%	0.7%	0.9	1	-1.9%
- CCc1sc(C(=O)Nc2ccc(F)cc2C)cc1C
 : 8.5	-3	14%	-1.4%	2.9	29	-2.1%
- COc1ccc(Cc2nnc(NC(=O)Nc3cccc(OC)c3)s2)cc1
 : 2.5	10	16%	11%	-0.9	7	-1.9%
- CCOc1ccccc1NC(=O)CSc1nc2c(sc3ccccc32)c(=O)n1CCCC(=O)NC1CCCC1
 : ·	·	·	-1.3%	2.2	3	-23%
- CN1C(C(=O)NCc2ccc(OC(F)(F)F)cc2)CC2Cn3c(nc4cc5ccccc5cc43)C21 (configuration not stated)
 : 0.3	13	3%	0.7%	-0.8	21	-3.7%
- CCCc1nc(SCC(N)=O)[nH]c(=O)c1CC
 : -1.5	-7	-6%	-2.6%[38.3 µM]	0.4	-5	-0.8%

# Whole records as entered above. Order of values: Menin-MLL FL inh	TRPV1 PAM	Sfp PPTase inh	PINK1 modulator	TRPML1 ag	TRPML1 blocker	ClpP mod
# CN(CC(O)CN1CCOCC1)S(=O)(=O)O (configuration not stated) is listed as 0.1&0.4	6&-17	15%&16%	1.5%&0.9%	0.4&0.4	-3&23	0.5%
# Cc1ccc(/C=N/N2C(=O)c3ccccc3NC2c2ccc(C)cc2)cc1 (configuration not stated) is listed as -0.7	-6	19%	0.5%	0.2	19	-3.0%
